# Compound activity (PubChem BioAssay)
# RGS16-Gao: modulates binding between human RGS16 and Galphao; hit rate 0.38% among 220,000; AID 1441; binding response (% of control), % at 10 µM; bead-based flow cytometry RGS16-Galphao binding, fluorescence; actives lie on both sides; O15492+P09471;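 active means below 25% or above 175%, edge rows of some plates excepted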;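 further: Galphao activated by GDP with aluminum fluoride before binding; 100% = wells without compound and 0% = beads without RGS; some results beyond the cut were filed as inactive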
# INS promoter inh: TRM-6 insulin promoter activity inhibition. TRM-6 cells (human fetal islet line), insulin promoter-eGFP reporter, imaging; reporter expression induced with tamoxifen. inhibition, % at 2 µM. hit rate 0.9% among 130,000. AID 1273;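 active means inhibition above the mean plus 3 SD, with well images judged a real hit on visual review, cut at about 60% in these data, passing the limit was not always enough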
# HSV augment: increases HSV replication in cells; HSV replication augmentation in cells, fold increase; maximum fold increase; hit rate 0.005% among 220,000;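 active means peak rise of 1.5-fold or more in the series; tested in PC3 cells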;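 further: first round at 10 µM; read as green reporter fluorescence; hits show the peak of a series up to 25 µM; 1 = signal of infected wells without compound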
# GALR2 ag: agonists of human galanin receptor 2 (GALR2); O43603; GALR2-expressing cells, agonist activation read-out; activation, %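 (tested at 5 µM)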; hit rate 0.48% among 140,000;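 active means above mean plus 3 SD of all compounds, about 5% in these data, not always enough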;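 further: 0% = vehicle buffer wells and 100% = reference agonist at full effect; tested in CHO reporter cells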
# PKD1 inh: inhibitors of human PKD1 kinase | Q15139 | PKD1 kinase fluorescence polarization assay | inhibition, %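 (about 10 µM by stock and volumes)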 | hit rate 0.056% among 200,000 | AID 797;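 active means inhibition of 50% or more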;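 further: controls were vehicle for no effect and a reference inhibitor for full effect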
# Target sequence (Q15139 whole entry, looked up): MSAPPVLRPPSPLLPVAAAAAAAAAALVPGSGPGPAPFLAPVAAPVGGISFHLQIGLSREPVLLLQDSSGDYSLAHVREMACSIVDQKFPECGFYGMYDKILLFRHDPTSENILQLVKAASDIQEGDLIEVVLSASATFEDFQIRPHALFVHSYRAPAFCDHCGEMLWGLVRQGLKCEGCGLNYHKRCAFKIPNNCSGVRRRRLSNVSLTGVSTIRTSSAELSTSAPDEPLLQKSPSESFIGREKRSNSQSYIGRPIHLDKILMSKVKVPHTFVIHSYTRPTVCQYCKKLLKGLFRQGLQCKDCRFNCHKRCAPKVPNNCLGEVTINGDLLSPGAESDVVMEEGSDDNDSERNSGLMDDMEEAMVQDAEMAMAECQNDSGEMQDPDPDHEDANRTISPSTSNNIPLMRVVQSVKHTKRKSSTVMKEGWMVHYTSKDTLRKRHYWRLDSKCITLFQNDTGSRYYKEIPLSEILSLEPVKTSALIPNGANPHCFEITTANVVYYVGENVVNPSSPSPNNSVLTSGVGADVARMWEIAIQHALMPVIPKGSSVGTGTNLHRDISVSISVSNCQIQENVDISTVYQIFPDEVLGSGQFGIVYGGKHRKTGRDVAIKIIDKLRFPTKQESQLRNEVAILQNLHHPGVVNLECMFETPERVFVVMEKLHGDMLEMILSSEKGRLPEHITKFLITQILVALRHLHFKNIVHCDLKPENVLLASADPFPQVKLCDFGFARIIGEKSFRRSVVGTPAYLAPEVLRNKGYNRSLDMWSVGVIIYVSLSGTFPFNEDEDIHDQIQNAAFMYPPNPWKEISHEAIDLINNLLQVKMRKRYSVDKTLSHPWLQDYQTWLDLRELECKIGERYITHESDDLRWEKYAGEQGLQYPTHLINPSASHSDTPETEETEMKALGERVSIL
# INS promoter inh cell count: second read-out of INS promoter inh, no call of its own (marks repeat the call); normalized cell count, %; measured here: cell count, toxicity; reference of the scale not given here;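 cells exposed to compound for 48 h; stained nuclei by imaging scaled within each plate; lower means fewer cells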
# HSV augment primary fold: second read-out of HSV augment, no call of its own (marks repeat the call); fold increase; compound at 10 µM; measured here: primary screen fold increase 10 uM; tested in PC3 cells;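 GFP signal in the first replicate; 1 = infected wells without compound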
# * marks the source's active call; other numbers are inactive results; i = inactive; . = no result given. The order is random. About 1.1% of those tested had a hit in this group.
SMILES,RGS16-Gao,INS promoter inh,INS promoter inh cell count,HSV augment,HSV augment primary fold,GALR2 ag,PKD1 inh
COc1ccc(N2CCN(CCNC(=O)CCS(=O)(=O)c3cccc4nsnc34)CC2)cc1,97.1,-31.2,41.7,i,1,-0.9,-2.4
COC(=O)c1ccccc1OCCOc1ccccc1C(=O)OC,101.2,-16.2,171.3,i,0.983,-0.8,-8.1
CSc1ccc(Cc2ccc(Cl)cc2Cl)nn1,100.6,26.5,71.2,i,0.95,-2.2,5.8
COc1ccc(NC(=O)c2cc3c(=O)n(C)c4ccccc4c3s2)cc1OC,93.6,-20.0,103.4,i,0.97,.,-9.3
COc1ccc2nc(Nc3nc4ccc(NC(C)=O)cc4s3)sc2c1,104.8,.,.,i,0.83,2.6,12.2
CCC(=O)N1CCN(c2ccc(NC(=O)c3cc4ccccc4o3)cc2Cl)CC1,101.2,11.6,140.2,.,.,-0.9,-6.7
Cc1cccc(OC(=O)c2sc(Cl)nc2C)c1,110.2,8.3,107.5,i,0.62,1.1,4.3
NC(=O)c1cc(NC(=O)CCCc2nc3ccccc3s2)cc(C(N)=O)c1,97.6,.,.,i,1.29,.,.
CCCCc1nc(Cl)c(C#N)c2c1CCCC2,109.1,-22.2,110.8,i,0.92,0.0,-12.4
Cc1ccc(C(=O)CC2SC(N)=NC2=O)cc1 (centres undefined),102.7,25.0,94.5,i,0.84,-3.6,0.2
CC(=O)Nc1c(C(=O)N2CCOCC2)cnn1-c1ccc(C)c(C)c1,95.6,15.4,69.5,i,0.95,-1.0,-2.7
CCOC(=O)CSc1nc2cc(C(=O)NCC3CCCO3)ccc2c(=O)n1Cc1ccco1 (centres undefined),107.8,27.8,109.7,i,0.68,-0.4,3.8
CCOc1cc(C(=O)Nc2cccc3ncccc23)cc(OCC)c1OCC,39.3,.,.,i,0.96,0.1,3.5
CC(=O)N(CC1CCCO1)C1(C(=O)NC2CCCC2)CCCCC1 (centres undefined),93.5,8.6,113.4,i,0.86,0.9,8.4
CCCN(CCC)CC(O)COc1ccc2c(c1)OCO2 (centres undefined),97.0,.,.,i,0.93,.,-2.4
COc1ccc(/C=C(/C#N)C(=O)Nc2cc(C)ccc2C)cc1C(=O)O,88.5,-16.7,114.4,.,.,-0.9,-4.1
O=C(Nc1nn(Cc2ccc(Cl)cc2)cc1Br)c1ccc(COc2ccccc2Cl)o1,84.5,-13.0,139.7,i,0.89,-4.4,0.0
Cc1ccc(Oc2ncccc2NC(=O)CC2(CC(=O)O)CCCC2)c2c1CCC2,87.8,.,.,i,0.99,.,.
COc1ccc(NC(=O)C2C3C=CC(C3)C2C(=O)NCc2ccco2)c(OC)c1 (centres undefined),98.7,.,.,i,0.95,-2.4,-12.2
COc1ccc(/C=N/N=C(\N)c2nonc2N)cc1,92.2,-11.8,105.7,i,0.92,.,-9.2
CCN1C(C)=C(C)S/C1=C1\SC(=S)N(NC(C)=O)C1=O,114.0,21.9,82.7,i,1.03,.,-7.3
COc1ccc(/C=N/Nc2nnc(Cc3ccc(OC)c(OC)c3)c(=O)[nH]2)cc1,79.0,.,.,i,0.92,-0.2,3.2
COCc1cc(C)nc(N/N=C/c2ccc(-c3ccc(C(=O)O)c(Cl)c3)o2)c1C#N,98.0,-5.6,140.0,i,1.17,.,0.8
Cc1ccc(NC(=O)N(C2CCCCC2)C(C)c2cccnc2)cc1C (centres undefined),116.7,.,.,i,0.91,-3.3,-5.2
CCCc1ccc(OCC(=O)NNC(=S)NC(=O)c2ccco2)cc1,88.4,27.5,47.5,i,0.95,-2.1,3.3

# Additional entries.
SMILES,RGS16-Gao,INS promoter inh,INS promoter inh cell count,HSV augment,HSV augment primary fold,GALR2 ag,PKD1 inh
CCCCC(=O)N(c1ccc(C)c(C)c1)C1C=CS(=O)(=O)C1 (centres undefined),80.1,.,.,i,0.94,-1.8,-8.5
O=C(CCc1nnc(COc2ccccc2)o1)NCc1ccccc1,106.3,.,.,i,1.04,.,0.2
Cn1c(=O)[nH]c(=O)c2c1nc(N1CCCCCC1)n2CCSc1nc2ccccc2[nH]1,95.3,0.0,128.5,i,0.76,-2.1,-5.0
O=C(Nc1ccccc1)Nc1cccc(Cl)c1Cl,97.6,7.7,75.8,i,0.97,-2.9,-4.0
c1ccc(OCCCn2nnc(-c3ccc(N4CCOCC4)cc3)n2)cc1,100.4,3.3,86.5,i,0.96,-0.1,1.6
COc1ccc(Nc2ccc(Cl)cc2)c(C(=O)O)c1,105.2,-20.7,103.7,i,0.92,-0.4,-2.7
Cc1c(NC(=O)c2cc3nc(-c4ccc(Cl)cc4)cc(C(F)(F)F)n3n2)c(=O)n(-c2ccccc2)n1C,87.8,-3.2,100.8,i,0.957,-2.3,-8.3
O=S(=O)(c1ccc(Nc2ccc3c(c2)OCO3)nc1)N1CCOCC1,96.3,.,.,i,1.04,-2.4,0.2
Cc1nnc(Nc2ccc(Cl)cc2)n(N)c1=O,106.8,58.3,114.2,i,0.9,-2.2,-7.2
O=S(=O)(NC1CCCCC1)c1cccc(-c2nnc(-c3ccccc3)o2)c1,101.4,-14.3,178.3,i,0.96,-0.5,10.8
COC(=O)CN1C(=O)C2(C(C#N)=C(N)Oc3n[nH]c(-c4cccs4)c32)c2ccccc21 (centres undefined),101.1,14.3,37.4,i,0.56,0.0,0.8
CCSc1nc2ccccc2n1CC(=O)OC,102.1,70.0,129.2,i,1.02,-3.6,8.1
CC1(NC(=S)Nc2ccccc2)CCS(=O)(=O)C1 (centres undefined),102.0,.,.,i,1.09,.,.
COc1cc(C(=O)NCCOc2cccc(C)c2)c(Br)c(OC)c1OC,95.2,-123.1,109.0,i,0.977,-1.9,-9.1
Cc1ccc(C2=NC3(CCCCCC3)NC2=S)cc1,25.3,50.0,67.9,i,0.94,-1.3,-5.6
COC(=O)c1ccc(NC(=O)CSc2nncc3ccc(OC)c(OC)c23)cc1,153.0,.,.,i,1.03,-0.8,-8.3
O=C(N/N=C/c1ccccn1)c1cc(-c2ccc(Br)cc2)nc2ccccc12,92.6,.,.,i,0.78,.,.
CCOc1ccc(NC(=O)Nc2nnc(CC)s2)cc1,97.4,-57.1,97.2,i,0.97,-2.0,-3.5
COc1ccccc1CC(=O)Nc1cccc(F)c1,99.3,-81.2,73.0,i,0.98,.,3.3
O=c1[nH]c2ccccc2c2ccccc12,101.2,.,.,i,0.92,.,-0.3
Cc1cc(N2CCN(Cc3ccccc3)CC2)n2nc(C)c(-c3ccccc3)c2n1,102.3,-20.0,77.9,i,0.92,-0.9,-4.7
Cc1cc(C(=O)NNC(=O)Nc2ccccc2)no1,103.3,.,.,i,0.94,.,.
CC1=CCC(/C=N\Nc2nnc3c(n2)[nH]c2ccccc23)CC1 (centres undefined),49.5,.,.,i,1.08,1.2,-0.8
O=C(COC(=O)/C=C/c1cccc(C(F)(F)F)c1)NC(c1ccccc1)c1ccccc1,103.4,0.0,103.5,i,0.95,-1.8,-8.9
c1ccc(-c2ccccc2OCCCN2CCOCC2)cc1,94.5,.,.,i,0.87,.,-8.3

# (cont.)
SMILES,RGS16-Gao,INS promoter inh,INS promoter inh cell count,HSV augment,HSV augment primary fold,GALR2 ag,PKD1 inh
NC(CC(=O)OC1CCCCC1)C(=O)OC1CCCCC1 (centres undefined),91.5,-30.8,74.7,i,0.99,8.3,0.4
CC(C)Cn1c(/C=N/Nc2nc3ccccc3[nH]2)nc2ccccc21,101.6,18.8,98.5,i,1.21,-0.2,-0.7
Cc1ccccc1-c1n[nH]c(=S)n1C,91.2,46.1,112.4,i,0.87,.,-0.9
O=S(=O)(NCC1CCCO1)c1ccc(S(=O)(=O)N2CCCC2)cc1 (centres undefined),97.5,-2.6,150.3,i,0.99,-2.3,-7.1
O=S(=O)(Nc1ccc(S(=O)(=O)N2CCCCC2)cc1)c1ccc(Br)s1,100.6,-62.5,91.0,i,0.96,-2.1,-6.6
O=C(c1ccc(CS(=O)(=O)c2ccc(Br)cc2)o1)N1CCN(c2ccccn2)CC1,98.3,.,.,i,0.82,-3.2,6.5
COc1ccc(-c2csc(NC(=O)c3ccc(N4C(=O)CCC4=O)cc3)n2)cc1OC,101.2,26.7,98.8,i,0.99,.,-6.9
CN(Cc1ccccc1)C1=CC(=[N+]2CCCCC2)CC(C)(C)C1,111.5,.,.,i,0.9,.,.
CCOC(=O)N1CCN(C(=O)C2CCCN(S(=O)(=O)c3ccc(F)cc3)C2)CC1 (centres undefined),90.8,.,.,i,1.11,.,-2.8
Cc1ccccc1C(=O)OCCN1CCOCC1,100.2,-7.7,93.0,.,.,-1.5,-11.3
C/C(N)=C(/C#N)C(=O)COC(=O)c1ccc(O)cc1,87.1,.,.,i,0.91,-1.1,-4.9
O=C(NC1=NCCS1)c1ccc(Cl)c(S(=O)(=O)N2CCOCC2)c1,103.0,-16.7,214.2,i,1.1,.,-1.6
O=C(Cn1c(=S)[nH]c2ncccc2c1=O)NCCc1ccccc1,95.3,.,.,i,1.03,.,-2.4

# A section taken from the entries so far, as a working copy:
SMILES,RGS16-Gao,INS promoter inh,INS promoter inh cell count,HSV augment,HSV augment primary fold,GALR2 ag,PKD1 inh
O=C(NC1=NCCS1)c1ccc(Cl)c(S(=O)(=O)N2CCOCC2)c1,103.0,-16.7,214.2,i,1.1,.,-1.6
O=C(Cn1c(=S)[nH]c2ncccc2c1=O)NCCc1ccccc1,95.3,.,.,i,1.03,.,-2.4

# Structures from the list above with an aryl methoxy group:
SMILES,RGS16-Gao,INS promoter inh,INS promoter inh cell count,HSV augment,HSV augment primary fold,GALR2 ag,PKD1 inh
COc1ccc(N2CCN(CCNC(=O)CCS(=O)(=O)c3cccc4nsnc34)CC2)cc1,97.1,-31.2,41.7,i,1,-0.9,-2.4
COc1ccc(NC(=O)c2cc3c(=O)n(C)c4ccccc4c3s2)cc1OC,93.6,-20.0,103.4,i,0.97,.,-9.3
COc1ccc2nc(Nc3nc4ccc(NC(C)=O)cc4s3)sc2c1,104.8,.,.,i,0.83,2.6,12.2
COc1ccc(/C=C(/C#N)C(=O)Nc2cc(C)ccc2C)cc1C(=O)O,88.5,-16.7,114.4,.,.,-0.9,-4.1
COc1ccc(NC(=O)C2C3C=CC(C3)C2C(=O)NCc2ccco2)c(OC)c1 (centres undefined),98.7,.,.,i,0.95,-2.4,-12.2
COc1ccc(/C=N/N=C(\N)c2nonc2N)cc1,92.2,-11.8,105.7,i,0.92,.,-9.2
COc1ccc(/C=N/Nc2nnc(Cc3ccc(OC)c(OC)c3)c(=O)[nH]2)cc1,79.0,.,.,i,0.92,-0.2,3.2
COc1ccc(Nc2ccc(Cl)cc2)c(C(=O)O)c1,105.2,-20.7,103.7,i,0.92,-0.4,-2.7
COc1cc(C(=O)NCCOc2cccc(C)c2)c(Br)c(OC)c1OC,95.2,-123.1,109.0,i,0.977,-1.9,-9.1
COC(=O)c1ccc(NC(=O)CSc2nncc3ccc(OC)c(OC)c23)cc1,153.0,.,.,i,1.03,-0.8,-8.3
COc1ccccc1CC(=O)Nc1cccc(F)c1,99.3,-81.2,73.0,i,0.98,.,3.3
COc1ccc(-c2csc(NC(=O)c3ccc(N4C(=O)CCC4=O)cc3)n2)cc1OC,101.2,26.7,98.8,i,0.99,.,-6.9
